Vaccinia mCherry – inhibitors of vaccinia virus infection (mCherry reporter signal) | 0.63% of 310,000 active | AID 720579 | Vaccinia virus mCherry reporter infection, fluorescence; about a quarter of the inactives have no number | Potency, µM (top dose mostly 36.5 µM), for the others: at the top dose activity change, negative = inhibition, usual class: inhibitors; active = well fitted inhibition curve with a large enough effect; inconclusive = small, poorly fitted or top-dose-only effect; inactive = no such curve, though single readings can be large or run the other way; tested in A549 cells; also: nearly all actives have a fitted effect of over 35% in size; inactives centre near -10
Vaccinia Venus – inhibitors of vaccinia virus (Venus reporter); Vaccinia virus Venus reporter expression, fluorescence; Potency, µM (top dose mostly 36.5 µM), without a hit: at the top dose activity change, negative = inhibition, hits mostly inhibitors; 0.46% of 330,000 active; AID 720580; active means well fitted inhibition curve with a large enough effect; inconclusive means small, poorly fitted or top-dose-only effect; inactive means no such curve, though single readings can be large or run the other way; tested in A549 cells; also: nearly all actives have a fitted effect of over 30% in size; inactives centre near -10
An asterisk follows results filed as active; i = inactive; ? = inconclusive; . = not tested or not shown; & = joins results of further samples; [ ] = remark or other dose. % is scaled to controls: 0 for no effect and ±100 for the full control effect; potency is read from the fitted curve at half-maximal effect.

Start of the data: the first 6 records, to show the layout:
SMILES	Vaccinia mCherry	Vaccinia Venus
O=C(CSc1nnc(-c2ccccn2)n1-c1ccccc1)Nc1ccc2c(c1)OCO2	.	-27%
CCOc1ccc2nc(Cl)c(C3CC(c4ccco4)=NN3S(C)(=O)=O)cc2c1 (configuration not stated)	-2%	1%
COc1cccc(C(=O)N(Cc2cc3ccc(C)cc3nc2N(C)C)C2CC2)c1OC	-16%	-4%
CC[C@@H]1C/C=C\Cc2ccccc2[C@H](C(=O)C[C@@H](O)CC(C)=O)OC1=O	0%	?
CCC(=O)N1c2ccc(S(=O)(=O)CCC(=O)N3CCC4(CC3)OCCO4)cc2CC1C (configuration not stated)	i	-11%
O=C(CC1SC(N2CCCCC2)=NC1=O)Nc1cccc(C(=O)O)c1 (configuration not stated)	i	-6%

This part in full, from the start:
SMILES	Vaccinia mCherry	Vaccinia Venus
O=C(CSc1nnc(-c2ccccn2)n1-c1ccccc1)Nc1ccc2c(c1)OCO2	.	-27%
CCOc1ccc2nc(Cl)c(C3CC(c4ccco4)=NN3S(C)(=O)=O)cc2c1 (configuration not stated)	-2%	1%
COc1cccc(C(=O)N(Cc2cc3ccc(C)cc3nc2N(C)C)C2CC2)c1OC	-16%	-4%
CC[C@@H]1C/C=C\Cc2ccccc2[C@H](C(=O)C[C@@H](O)CC(C)=O)OC1=O	0%	?
CCC(=O)N1c2ccc(S(=O)(=O)CCC(=O)N3CCC4(CC3)OCCO4)cc2CC1C (configuration not stated)	i	-11%
O=C(CC1SC(N2CCCCC2)=NC1=O)Nc1cccc(C(=O)O)c1 (configuration not stated)	i	-6%
O=C(CSC1=NCCS1)Nc1cccc2ccccc12	.	-10%
COc1ccc(OC)c(CNc2ncnc3onc(-c4ccc(Cl)cc4)c23)c1	-28%	-24%
CCC(C)n1c(SCc2c(F)cccc2Cl)nc2ccsc2c1=O (configuration not stated)	-27%[7.34 µM]	-22%[7.34 µM]
CCOC(=O)C(C#N)C(Cc1ccccc1)c1ccco1 (configuration not stated)	-14%	-5%
O=C1/C(=C\c2ccncc2)CCc2ccccc21	-9%	-19%
COc1cc(-c2noc(CCC(=O)Nc3cccnc3)n2)cc(OC)c1OC	.	-1%
O=C(C1CCCO1)N1CCN(C(=S)Nc2ccc(F)cc2)CC1 (configuration not stated)	0%	-14%
COc1ccc(C2C=C(Nc3ccccc3)C(=O)N2c2ccccc2)cc1OC (configuration not stated)	-15%	-4%
O=C(CN1Cc2ccccc2OC(c2ccsc2)C1)NCC1OCCc2ccccc21 (configuration not stated)	0%	0%
CCN(C(=O)COC(=O)/C=C/c1ccccc1Cl)c1c(N)n(Cc2ccccc2)c(=O)[nH]c1=O	-13%	-24%
O=C(COc1ccc(S(=O)(=O)N2CCOCC2)cc1)N1CCCCCC1	12%	0%
C=C(C(=O)O)C1CCC2(C)CCCC(C)(O)C2C1 (configuration not stated)	5%	-2%
COc1ccc(C2Nc3ccccc3-n3c(-c4ccccc4)c4c(=O)n(C)c(=O)n(C)c4c32)cc1 (configuration not stated)	-17%	-15%
COc1ccc(CC(=O)NCc2csc(-c3cccs3)n2)cc1OC	i	-4%
CC(=O)Nc1ccc2c(c1)-c1ccc(F)cc1C2=O	i	-15%
Cc1[nH]c2ccccc2c1/C=C(\C#N)C(=O)NC1CC1	i	-16%
COc1ccc(/C=C/c2nnc(NC(=O)C(C)(C)C)s2)cc1	-2%[7.34 µM]	-15%[7.34 µM]
O=C(Cn1c(=O)oc2cc(S(=O)(=O)N3CCCC3)ccc21)NCc1ccc(F)cc1	-19%	-17%&-15%
[O-]/C(=C(\C(=S)Nc1cccc2ccccc12)[n+]1ccccc1)c1cccs1	2%	2%

Next part
SMILES	Vaccinia mCherry	Vaccinia Venus
O=c1[nH]c(=S)n(-c2ccccc2)c(O)c1C=NCc1ccccn1	-4%	-20%
Cc1nc(-c2ccccc2)sc1C1(C)CC(c2c(Cl)cccc2Cl)=NO1 (configuration not stated)	-14%	-14%
O=C(CC[C@H]1O[C@@H](n2ccc(=O)[nH]c2=O)[C@H](O)[C@@H]1O)N[C@@H](Cc1ccccc1)C(=O)NCC1CCCCC1	11%	1%
COc1ccccc1NC(=O)C1=C(C)Nc2nc(SCc3ccccc3)nn2C1c1cccc(O)c1 (configuration not stated)	-13%	-11%
O=C(Nc1nc2ccc(F)cc2s1)c1nc(S(=O)(=O)Cc2ccccc2F)ncc1Cl	-24%	-19%
O=C(Nc1ccc(S(=O)(=O)N2CCCC2)cc1)c1cnccn1	i	0%
Brc1ccc2nc(-c3ccco3)c(Cc3ccsc3)n2c1	i	5%
Clc1ncnc2scc(-c3ccccc3)c12	-22%	-9%
O=C(COc1cccnc1[N+](=O)[O-])Nc1cccc(Br)c1	-12%	0%
CCOC(=O)CNC(=O)C1CCCCC1	-15%	-13%
C[N+](C)(C)CCOC(N)=O	-15%&-12%	-14%&-3%
S=P(Nn1cnnc1)(c1ccccc1)c1ccccc1	-2%	-8%
COc1ccc(C(=O)Nc2ccccn2)cc1	10%	16%
CCn1c(C)nc2cc(-c3nc4n(n3)Cc3ccccc3-4)ccc21	.	?
C[C@@H]1CN([C@H](C)CO)C(=O)CCCn2nncc2CO[C@@H]1CN(C)C(=O)c1cc(-c2ccccc2)on1	-2%	-10%
COCc1ccc(C(=O)NCC2(N3CCCCC3)CCCCC2)cc1	-5%	-19%
O=C(O)Cc1c(C(=O)O)[nH]c2ccc(C(=O)O)cc12	i	4%
CSc1ccc(Cl)c(C(=O)OCC(=O)N2CC(C)OC(C)C2)c1 (configuration not stated)	-13%[1.46 µM]	-12%
NC(=O)CCc1nc2cc(C(F)(F)F)ccc2n(Cc2ccccc2)c1=O	-6%	10%
CC(C)C(=O)NC(=S)Nc1ccccc1N1CCN(C(=O)c2ccccc2)CC1	i	-7%
O=C(CCNC(=O)c1ccccc1)Nc1ccc(Cl)c(S(=O)(=O)N2CCCCC2)c1	-16%	-29%
Cc1cc(N/N=C/c2ccccc2O)nc(-c2ccccc2O)n1	-19%	-9%
Cc1cc(Br)c(NC(=O)c2c(-c3c(Cl)cccc3Cl)noc2C)c(Br)c1	-3%	-13%
C/C(N)=C(/C#N)C(=O)CSc1nnc(Nc2c(C)cccc2C)s1	-24%	3%
C[C@@](Cc1ccc(O)c(O)c1)(NN)C(=O)O	-15%	-6%

Following part:
SMILES	Vaccinia mCherry	Vaccinia Venus
Cc1ccc2ncc3c(-c4ccc(F)cc4)nn(CC(=O)Nc4ccccc4C)c3c2c1	-4%	8%
COC(=O)c1sccc1NC(=O)Cc1ccc(Br)cc1	-15%	-8%
CN1/C(=C\C=C2/SC(=S)NC2=O)C(C)(C)c2ccccc21	125%[activator]	.
O=S(=O)(Nc1nc2ccccc2nc1NCc1ccco1)c1ccccc1	.	4%
Cc1cc(OCC(=O)NCCN2CCOCC2)ccc1Br	i	-6%
Cc1c(NC(=O)Cc2cccs2)cccc1[N+](=O)[O-]	-3%	1%
O/N=C\c1ccccc1Oc1ccc(F)cc1	-15%	-11%
COc1ccc(C(C)NC(=O)CN(c2cc(OC)ccc2OC)S(=O)(=O)c2ccccc2)cc1 (configuration not stated)	-5%	1%
Cc1ccc(NC(=O)CN2C(=O)COc3ccc(S(=O)(=O)NC4CCCC4)cc32)cc1N(C)C	-20%	-5%
CCOC(=O)c1c(NC(=O)c2ccc(Br)o2)sc(C)c1CC	.	-9%
CC1CCC(NC(=O)CSc2nncs2)CC1 (configuration not stated)	-8%	-14%
COc1cc(OC)c(C(=O)Nc2ccc(N(C)C)cc2)cc1OC	-10%	-10%
Cc1ccc(C2=NCC(=O)Nc3ccc(Br)cc32)cc1	-24%	-19%
Cc1c(C(=O)Oc2cc(N)n(S(C)(=O)=O)n2)cccc1[N+](=O)[O-]	i	-4%
Cc1ccc(OCC(=O)Nc2cccc(OCc3cc(=O)n4ccccc4n3)c2)cc1C	-30%	-22%
COCCCNc1nc2ccccc2nc1NS(=O)(=O)c1ccc(C)c(C)c1	-6%	-14%
CCOc1ccc(S(=O)(=O)NCc2cccnc2)cc1NC(=O)c1ccccc1F	-4%	-13%
CS(=O)(=O)N(CCc1ccccc1)CC(=O)N1CCN(c2ccccc2)CC1	-23%	?
Cc1cc2c(=Cc3ccc(N(C)C)cc3)c3ccccc3n2[n+]1C	21%	254%[activator]
COC(=O)C(Cc1ccccc1)NC(=O)CCNC(=O)c1ccco1 (configuration not stated)	-25%	-5%
COc1ccccc1N1CCN(c2ncnc3c2cnn3-c2cccc(Cl)c2)CC1	-4%	8%
Cc1ccc(N(Cc2ccc([N+](=O)[O-])cc2)C(=O)c2ccco2)cc1C	-21%	-11%
CCCCCCN1C[C@H](n2cc(C3CC3)nn2)[C@@H](O)C[C@@H]1c1ccccc1	?	11µM*
COc1ccc(N2CC(C(=O)N3CCN(S(=O)(=O)c4ccc(F)c(F)c4)CC3)CC2=O)c(OC)c1 (configuration not stated)	-22%	-13%
COc1ccccc1C(=O)Nc1ccc(S(=O)(=O)N2CCc3ccccc32)cc1	-21%	-17%

The list continues:
SMILES	Vaccinia mCherry	Vaccinia Venus
O=C(Nc1ccccc1)N(Cc1cccs1)c1ccc(Cl)cc1	-1%	2%
Cn1c(=O)[nH]c(=O)c2c1nc(N1CCCC1)n2CCCSc1nnnn1-c1ccccc1	-26%	-21%
O=C(Nc1ccc(Br)cn1)c1ccc(Br)s1	-23%	-23%
COCCCn1c(SCC(=O)Nc2ccc(C)cc2)nc2ccccc2c1=O	i	1%
CC(C)CCn1c(Oc2ccccc2F)nc2c1c(=O)n(C)c(=O)n2C	-18%	-12%
CCCNC(=O)NC(=O)COc1c(F)c(F)cc(F)c1F	.	2%
Cc1ccc(CNC(=O)CCS(=O)(=O)c2ccc3c(c2)oc(=O)n3C)cc1	-20%	-18%
CCOc1ccc(C(=O)Nc2ccc(OCc3cc(=O)n4cccc(C)c4n3)cc2)cc1	-13%	-8%
O=C(NCc1ccc(Cl)cc1)C(=O)NCC(c1cccs1)S(=O)(=O)c1cccs1 (configuration not stated)	-22%	-7%
C[C@@H]1CC=C[C@H]2[C@H]1C(=O)N(Cc1ccccc1)[C@H]2c1ccc(-c2ccc(N(C)C)cc2)cc1F	-9%	-7%
Fc1cccc(Cl)c1CSC1=NCCS1	-13%	-6%
COc1ccccc1C(=O)Oc1ccc2c(c1)O/C(=C\c1ccncc1)C2=O	-26%	-24%
O=C(Nc1cc(F)cc(F)c1)c1ccc(NCCc2ccccc2)c([N+](=O)[O-])c1	-15%	-7%
Cc1ccc(N(CC(=O)NN=C2CCN(C)CC2)S(=O)(=O)c2ccccc2)c(C)c1	-23%	-7%
COc1ccccc1CNc1ccc(-c2nc(C(C)C)no2)cc1[N+](=O)[O-]	-24%	-22%
CCOC(=O)c1[nH]c2c(c1-c1ccc(OC)cc1)C(=O)CC(c1ccc(OC)c(OC)c1)C2 (configuration not stated)	-12%	-15%
Cc1nc2c(ccc3nc(NC(=O)c4ccc(S(=O)(=O)N(C)C)cc4)sc32)s1	i	-2%
CC(=O)c1ccc2c3c(ccc([N+](=O)[O-])c13)CC2	i	-10%
COc1cc(C(=O)N2CCCCC2c2cc(C(=O)NCc3cccnc3)no2)cc(OC)c1C (configuration not stated)	-3%	-15%
COC(=O)c1ccc2nc(NC(=O)C(C)C)sc2c1	i	-27%
O=[N+]([O-])c1ccc(SCCc2ccccn2)cc1	-15%	-11%
CC(NC(=O)c1ccc(C23CC4CC(CC(C4)C2)C3)cc1)C(=O)O (configuration not stated)	-4%	-4%
C=CC[C@H](CC(=O)NCCO)C(=O)N[C@H](COC(=O)[C@@H](CC=C)CC(=O)OC(C)(C)C)Cc1ccccc1	i	-10%
Cc1ccc(CNC(=O)c2ccc(Cn3c(SCc4ccccc4F)nc4cccnc43)cc2)cc1	-20%	-26%
CC1CCCN(C(C(=O)NC2CCCCC2)c2cc3c(cc2[N+](=O)[O-])OCO3)C1 (configuration not stated)	-14%	-7%

Continued.
SMILES	Vaccinia mCherry	Vaccinia Venus
CC1CCN(c2nncc3ccccc23)CC1	-6%	-15%
O=[N+]([O-])c1cccc(-c2ccc(CN3CCN(c4ccccc4)CC3)o2)c1	i	-6%
COCCNC(=O)CCCn1c(=O)c2cc(OC)c(OC)cc2n(CC(=O)Nc2ccc(F)cc2)c1=O	-1%	3%
Cc1ccc(CC(NC(=O)c2ccccc2)C(=O)NC(CC(C)C)C(=O)O)cc1 (configuration not stated)	-1%	-3%
COC(=O)c1cc2sccc2n1Cc1nc(-c2ccc(C)cc2)oc1C	-11%	1%
CCOc1ccc(-c2noc(-c3csc([C@@H]4O[C@H](CO)[C@H](O)[C@H](O)[C@H]4O)n3)n2)cc1	4%	-6%
O=[N+]([O-])c1ncccc1OCc1ccc(Cl)c(Cl)c1	-3%	0%

One compound at a time, from the list above. Order of values: Vaccinia mCherry, Vaccinia Venus
Results for `COc1ccc(/C=C/c2nnc(NC(=O)C(C)(C)C)s2)cc1` : -2%[7.34 µM], -15%[7.34 µM]
Results for `[O-]/C(=C(\C(=S)Nc1cccc2ccccc12)[n+]1ccccc1)c1cccs1` : 2%, 2%

Screens deposited in PubChem BioAssay by National Center for Advancing Translational Sciences (NCATS).
